Assay outcomes (PubChem BioAssay)
LANA-H2A inh – blocks KSHV LANA binding to histone H2A/H2B; Q9QR71; cell-free LANA-H2A/H2B peptide, fluorescence polarization; inhibition, % (no concentration beside the values); 0.6% of 320,000 active; AID 2629; in the data active means inhibition mostly above about 10%, no sharp cut-off; inactive means mostly below about 6.7%;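 further: stock transfer was 7.5 nL into about 10 µL; 0% = median of vehicle wells and 100% = median of positive control wells; one replicate is shown; the record names a cut of 25% in any replicate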
Target sequence (Q9QR71 whole entry, looked up): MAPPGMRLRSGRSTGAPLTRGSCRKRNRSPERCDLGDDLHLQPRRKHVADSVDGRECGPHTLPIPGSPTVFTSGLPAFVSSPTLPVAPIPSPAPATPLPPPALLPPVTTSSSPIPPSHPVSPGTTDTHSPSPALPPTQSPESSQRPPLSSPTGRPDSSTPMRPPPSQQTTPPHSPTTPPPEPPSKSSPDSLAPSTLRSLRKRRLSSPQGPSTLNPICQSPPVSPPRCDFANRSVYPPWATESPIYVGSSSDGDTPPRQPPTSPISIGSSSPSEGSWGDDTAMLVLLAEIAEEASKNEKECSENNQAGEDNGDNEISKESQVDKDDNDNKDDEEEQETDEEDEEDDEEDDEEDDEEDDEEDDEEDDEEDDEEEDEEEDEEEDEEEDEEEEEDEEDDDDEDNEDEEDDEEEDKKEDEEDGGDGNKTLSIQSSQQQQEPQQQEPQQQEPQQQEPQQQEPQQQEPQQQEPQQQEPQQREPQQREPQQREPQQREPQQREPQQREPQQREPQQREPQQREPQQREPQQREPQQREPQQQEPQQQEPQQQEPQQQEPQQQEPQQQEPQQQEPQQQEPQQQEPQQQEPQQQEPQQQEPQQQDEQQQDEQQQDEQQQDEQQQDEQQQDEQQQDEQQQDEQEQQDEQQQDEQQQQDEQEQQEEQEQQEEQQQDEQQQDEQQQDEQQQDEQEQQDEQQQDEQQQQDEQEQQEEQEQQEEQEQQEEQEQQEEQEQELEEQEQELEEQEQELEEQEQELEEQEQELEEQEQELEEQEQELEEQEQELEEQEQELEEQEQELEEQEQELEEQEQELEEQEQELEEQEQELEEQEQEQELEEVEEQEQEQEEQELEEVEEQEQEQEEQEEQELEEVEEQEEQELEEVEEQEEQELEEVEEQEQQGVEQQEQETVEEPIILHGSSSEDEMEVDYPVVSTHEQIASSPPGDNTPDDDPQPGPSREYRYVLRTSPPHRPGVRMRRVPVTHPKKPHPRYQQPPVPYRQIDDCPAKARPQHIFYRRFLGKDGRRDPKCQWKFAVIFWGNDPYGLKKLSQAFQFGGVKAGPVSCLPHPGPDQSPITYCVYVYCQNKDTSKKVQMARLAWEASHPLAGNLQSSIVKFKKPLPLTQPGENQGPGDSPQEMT
Beta apoptosis – beta cell apoptosis inhibition | INS-1E cytokine-induced death, ATP luminescence, 48 h; percent of positive-control rescue, neutral wells zero | protection from apoptosis, % (test concentration not listed) | 0.8% of 300,000 active | AID 435005;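 active means all replicates at 75% or more, or half of them and the mean; inconclusive means half reach 75% but not the mean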;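 further: 0% = cytokine-treated negative control wells and 100% = positive control rescue; higher means more ATP so stronger rescue from cytokine killing; wells of about 40 µL received 100 nL stock; the first replicate is given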
A1 inh – inhibitors of the anti-apoptotic protein A1, read as caspase activation; MEF A1-2A-BIM cells, Caspase-Glo 3/7 luminescence, 3 h; percent of clofoctol response, vehicle zero; caspase activation, % (concentration not given with the values); 0.066% of 330,000 active;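 active means over half of replicate activation scores above 10%, or exactly half above 10 with the replicate mean above 10; inconclusive means replicate mean below 10 yet half the replicates above 10; inactive means over half of replicates below 10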;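 further: wells of about 30 µL received 50 nL stock; many hits fall short of the cut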
Calb FLC – C. albicans growth modulation with fluconazole | C. albicans CaCi-2 (fluconazole-resistant clinical isolate) + fluconazole, Alamar Blue growth, 48 h | growth inhibition, % (test concentration not listed) | 0.57% of 300,000 active | AID 1979;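 active means most replicates above 75%; inconclusive means exactly half above 75%; inactive means most below 75%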;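 further: all wells also contain fluconazole at 8 µg/ml as a sub-toxic cotreatment; 0% = median of DMSO wells and 100% = median of geldanamycin control wells; wells of about 8 µL received 7.5 nL stock; the first replicate is given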
Beta2AR agonist – agonists of human beta-2 adrenergic receptor inducing internalization | P07550 | Am2.2-beta2AR cells, FAP receptor internalization, flow cytometry; reference of the scale not given here | response, % (concentration not given with the values) | 0.43% of 340,000 active | AID 504454;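 active means response above a set limit, near 3 SD of response in nonfluorescent compounds, cut at about 42% in these data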;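 further: stock transfer was 100 nL into about 11 µL; a reference agonist was the positive control; negative values mostly stem from fluorescent compounds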
T cruzi repl – T. cruzi replication inhibition | T. cruzi beta-gal in NIH3T3, luminescence, 90 h | inhibition, % (no concentration beside the values) | 1.4% of 300,000 active | AID 1885;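 active means mean inhibition across valid replicates above about 55%, limit read from the data; inconclusive means mean below that limit but half or more replicates reach it; inactive means mean below it, under half of replicates reach it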;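 further: signal also drops with host cell toxicity which is not excluded here; 0% = plate median of DMSO wells and 100% = zero luminescence signal; higher percent means less beta-gal luminescence so fewer parasites; stock transfer was 50 nL into about 50 µL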
RanGTP-Imp inh – disruptors of Ran-importin-beta complex formation – biochemical, FRET, CFP-Ran, YFP-importin-beta, homogeneous, primary screen; cell-free CFP-Ran/YFP-importin-beta FRET ratio; inhibition, % (test concentration not listed); 1.1% of 300,000 active; AID 2216;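 active means most replicates above 15%; inconclusive means exactly half above 15%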;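 further: 0% = DMSO wells and 100% = Ran loaded with GDP instead of GTP; wells of about 40 µL received 100 nL stock; the first replicate is given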
UCH37 DUB inh – blocks the human deubiquitinase UCH37; Q9Y5K5; purified proteasome/UCH37, Ub-AMC cleavage fluorescence; inhibition, % (test concentration not listed); 0.33% of 330,000 active; AID 588478;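 active means mean of two replicates above 20%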;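 further: 0% = compound-free wells with enzyme and 100% = wells lacking proteasome; stock transfer was 100 nL into about 20 µL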
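System: Proteasome-associated human UCH37 deubiquitinase; Input: 0.15 nM proteasome in added enzyme buffer; Also added: Ub-AMC substrate from 1 µM stock; Incubation: 30 min compound-proteasome preincubation then 25 min substrate reaction, room temperature; Detection: fluorescence, ex 355 nm, em 460 nm; Read-out: % inhibition of Ub-AMC cleavage fluorescence; Benchmarks: no-proteasome and no-compound wells.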
* = called active by the depositor; ? = inconclusive; nt = not tested or not shown.

SMILES	LANA-H2A inh	Beta apoptosis	A1 inh	Calb FLC	Beta2AR agonist	T cruzi repl	RanGTP-Imp inh	UCH37 DUB inh
Cc1ccc2[nH]c3c(=O)n(Cc4ccco4)cnc3c2c1	5.3	1.8	-1.0	1.9	1.4	-2.7	-0.1	-0.7
COc1ccc([C@H]2/C=C\CN(C(=O)C3CCCC3)[C@@H](C)C(=O)N2Cc2ccc(F)cc2)cc1	-0.9	6.9	-1.4	9.6	7.2	8.2	-1.4	-1.5
CC(NC(=O)CN1CCc2ccccc21)c1ccccc1 (configuration not stated)	-0.4	1.4	0.5	-3.3	2.9	-9.4	-8.9	6.2
Nc1cc([N+](=O)[O-])ccc1O	0.1	nt	0.9	-1.7	6.0	5.8	0.0	13.9
O=C(Nc1cccc(F)c1)Nc1ccc(Cl)cn1	-5.4	1.5	-0.8	2.2	2.1	4.9	-1.3	3.0
O=S(=O)(Nc1ccc(Cl)cc1)c1cccc2cccnc12	1.8	-7.8	0.9	50.6	14.7	-6.1	-1.6	4.0
COc1c(Br)cc2c(C)c(C(=O)N3CCOCC3)oc2c1Br	-7.0	-14.6	0.9	nt	nt	nt	nt	0.5
O=C(CSc1nn(-c2ccc(F)cc2)c(=S)s1)NCC1CCCO1 (configuration not stated)	-3.6	0.0	1.2	-4.1	3.4	-1.4	2.2	6.2
C=CCOc1ccc(C(=O)Nc2ccc3c(c2)n(C)c(=O)n3C)cc1	-8.2	-7.0	0.0	25.4	-6.0	1.0	0.0	0.5
Cc1cnc(C(=O)Nc2ccccc2-c2nnn(CC(=O)NC3CCCC3)n2)cn1	0.1	-9.4	0.2	-0.9	-2.8	-6.5	1.6	-0.7
CCC(C)N1C(=O)c2ccccc2C1C(=O)NC1CCCCCC1 (configuration not stated)	-1.4	-1.5	0.2	28.4	-5.4	-3.0	?	0.3
Cc1cc(NC(=O)CCCn2nc([N+](=O)[O-])cc2C)no1	0.8	-1.6	0.0	8.1	-0.9	-1.6	0.4	2.4
COc1ccccc1OCCCCCCN1CCN(C)CC1	-5.7	nt	-0.2	3.4	3.5	16.8	-0.6	4.1
COc1cc2c(cc1OC)C(NC(=O)C(F)(F)F)CNC2=O (configuration not stated)	-3.1	?	0.2	0.3	8.7	-4.3	0.2	3.5
CCOC(=O)c1ccc(NC(=O)COc2ccc(CNC3CCCCC3)cc2OC)cc1	1.9	-7.0	0.1	-14.1	-2.0	27.1	0.0	-1.1

Reprinted at random: two entries already listed, in no set order.
SMILES	LANA-H2A inh	Beta apoptosis	A1 inh	Calb FLC	Beta2AR agonist	T cruzi repl	RanGTP-Imp inh	UCH37 DUB inh
COc1c(Br)cc2c(C)c(C(=O)N3CCOCC3)oc2c1Br	-7.0	-14.6	0.9	nt	nt	nt	nt	0.5
CCOC(=O)c1ccc(NC(=O)COc2ccc(CNC3CCCCC3)cc2OC)cc1	1.9	-7.0	0.1	-14.1	-2.0	27.1	0.0	-1.1

(listing goes on)
SMILES	LANA-H2A inh	Beta apoptosis	A1 inh	Calb FLC	Beta2AR agonist	T cruzi repl	RanGTP-Imp inh	UCH37 DUB inh
CCC(CC)NC(=O)Nc1ccc(F)cc1F	-1.3	1.6	0.2	-9.9	-0.5	-11.2	-6.0	4.9
COc1ccc(C)cc1NC(=O)CCC(=O)Nc1ccc2nc(N3CCN(C)CC3)cc(C)c2c1	3.5	3.9	-0.2	-2.1	nt	65.2*	-0.8	-59.3
CC(C)(C)OC(=O)NCCc1nnc(SCc2c(Cl)cccc2Cl)o1	0.8	-2.4	0.6	-11.9	6.9	4.1	?	3.4
Cc1ccc(NC(=O)N2CCC(NC(=O)c3cccc(F)c3)CC2)cc1	7.1	0.1	1.0	-9.8	2.9	0.6	-0.4	3.8
Cc1cc(Nc2ccc(N3CCOCC3)cc2)c2cccc(C)c2n1	2.4	15.0	1.4	-22.9	1.4	25.3	0.0	9.4
Cc1c(C(=O)N(C)C2CCCCC2)sc2ncnc(N3CCN(c4ccccc4F)CC3)c12	-2.2	18.7	0.0	6.2	5.0	29.8	1.0	4.1
CCOC(=O)C1CCN(C(=O)COC(=O)C2CCN(S(=O)(=O)c3ccc4c(c3)OCCO4)CC2)CC1	-6.4	-3.2	0.7	-2.7	-0.4	-2.9	3.3	1.1
CCc1nnc(NC(=O)CSc2nnc(CCc3nc4ccccc4[nH]3)n2C)s1	-1.2	-4.0	1.5	2.2	1.6	-4.9	1.2	2.4
COc1ccccc1-n1c(=O)c(C#N)c(-c2ccc([N+](=O)[O-])cc2)c2cc(C(=O)c3cc(F)ccc3O)cnc21	-3.0	12.3	-1.1	-3.2	3.9	41.5	3.6	1.3
CCCCc1n[nH]c(=S)n1Cc1ccc(Cl)cc1	-5.5	-5.8	0.7	-10.5	-1.0	-3.4	-3.2	3.3
O=S(=O)(c1ccc(F)c(F)c1F)N1CCN(C(=S)NCc2ccccc2)CC1	3.7	1.1	-0.7	-1.9	-3.5	3.1	2.2	3.4
O=C(N/N=C/c1c[nH]c2ccccc12)c1cccc(Cl)c1	-3.7	nt	0.0	0.7	4.2	-2.1	-0.5	nt
CCOC(=O)CSCC(=O)Nc1cc(C)ccc1C	0.6	0.5	-1.1	-7.6	13.5	-17.2	2.3	2.1
CC(C)(CCC(=S)N1CCOCC1)C1CCCCC1	1.4	-9.7	-0.2	-4.7	-28.8	-18.8	4.3	nt
COc1ccc(C(C#N)c2ccc(=O)[nH]n2)cc1 (configuration not stated)	2.5	-0.5	1.1	28.8	4.5	-23.9	1.9	4.7
Cc1ccc(C(=O)Nc2ccccc2C(N)=O)o1	-0.7	3.0	-1.5	-5.2	-6.6	12.9	6.4	2.0
CCCCn1c(N)c(N(Cc2ccccc2OC)C(=O)CC2OC(=O)c3ccccc32)c(=O)[nH]c1=O (configuration not stated)	6.0	1.1	-0.2	1.8	-5.2	-12.5	2.8	2.3
COC(=O)c1ccc(/C=C2\Oc3ccccc3NC2=O)cc1	4.5	17.5	-1.0	-3.0	6.0	-16.8	11.5	-109.3
COc1ccc(NC(=O)CSc2nnc(-c3ccccc3)n2Cc2ccco2)cc1OC	-0.5	0.6	0.1	14.0	-6.5	17.3	-0.6	-0.1
COc1ccc(CNC(=O)C2=CC(c3ccc(C)cc3)=NS(=O)(=O)N2C)cc1	-11.2	-6.3	nt	-0.2	-3.8	-0.7	4.0	6.5
FC(F)(F)c1cccc(NCc2cn3cccnc3n2)c1	-5.4	4.1	0.2	-2.9	-11.7	-6.9	8.7	-5.2
CCCOc1c(Cl)cc(C(=O)Nc2ccc3c(c2)OCO3)cc1OCC	-0.6	14.6	0.2	1.0	10.2	40.2	3.6	5.6
COC(=O)c1cc2n(n1)CCN(Cc1ccc(F)cc1)C2=O	2.2	0.2	-0.1	1.2	22.1	-3.3	3.2	-0.5
CC(Oc1ccc(Br)cc1)c1nc2c3ccccc3nc(=S)n2[nH]1 (configuration not stated)	4.4	99.1*	-0.2	-10.3	6.9	18.2	-0.6	6.2
O=C(CN1CCN(C(=O)C2CCCO2)CC1)Nc1ccc(F)cc1 (configuration not stated)	2.0	nt	0.3	-1.3	-2.0	-9.0	1.3	-0.9
O=C(CN1CCN(S(=O)(=O)/C=C/c2ccccc2)CC1)Nc1ccc(N2CCOCC2)cc1	1.7	0.6	0.8	-4.5	6.9	6.3	-3.5	1.4
CCc1ccc(OCC(=O)N/N=C/c2cc([N+](=O)[O-])ccc2N2CCOCC2)cc1	2.2	-4.6	-0.3	14.8	10.1	0.3	6.1	nt
COc1ccc(C(CCO)NC(=O)c2cccs2)cc1OC (configuration not stated)	-4.5	-4.1	0.7	4.2	1.1	-2.7	-0.9	2.7
CC(c1ccc(F)cc1)n1c(-c2cccs2)n[nH]c1=S (configuration not stated)	-2.4	-5.4	-0.6	36.1	-0.5	-5.4	0.3	3.3
c1ccc(N2CCCCC2)c(Nc2nc3ccccc3n3cnnc23)c1	2.3	18.1	0.0	13.6	-3.9	11.0	2.5	-17.7
CCC1CCCCN1C(=O)CCS(=O)(=O)c1ccccc1 (configuration not stated)	1.0	-2.7	-1.2	7.2	15.3	-12.2	0.5	4.1
CCn1c(SCC(=O)Nc2ccc(C)cc2)nnc1-c1cnccn1	-5.4	-2.9	0.8	-2.9	-7.6	-6.5	3.4	5.3
CN(CC(=O)Nc1cccc(F)c1)C(=O)c1ccc(N2C(=O)c3ccccc3C2=O)cc1	-7.7	1.6	-1.3	nt	0.6	nt	nt	1.6
COc1ccccc1NC(=O)COC(=O)CCn1c(C)csc1=O	-2.6	nt	0.3	-9.3	-6.0	-11.1	2.9	2.2
O=C(Nc1cc(S(=O)(=O)N2CCOCC2)ccc1Cl)C(=O)c1c(-c2ccccc2)cc2ccccn12	-5.8	nt	-0.5	25.3	6.5	22.8	-2.3	9.2
CCc1cc2c(=O)n(Cc3ccco3)c(SCC(=O)NCC3CCCO3)nc2s1 (configuration not stated)	-5.7	-4.0	0.0	-4.5	-12.6	12.9	0.7	1.7
C=CCN(C(=O)c1csnn1)C(C(=O)NCc1ccccc1)c1c(F)cccc1Cl (configuration not stated)	0.9	-0.3	-0.2	2.2	1.2	8.5	0.7	-0.2
Oc1[nH]c2ccccc2c1N=Nc1ccccc1F	-64.5	0.5	-3.4	-7.9	7.7	10.1	-2.1	5.2
Cc1ccc2c(CN(C)Cc3cccc(Cl)c3)cc(=O)oc2c1C	-3.4	nt	0.1	8.3	-9.8	15.2	4.4	3.5
CC(=O)N1CC(C)Oc2ccc(S(=O)(=O)NC(CC(=O)O)c3cc(C)ccc3C)cc21 (configuration not stated)	5.7	-3.1	-2.0	5.6	0.5	-24.2	2.1	-1.2
COc1ccccc1C(=O)C1CCCN(C(=O)c2cn3cc(Cl)ccc3n2)C1 (configuration not stated)	7.6	-10.2	0.5	19.6	-14.7	9.1	-1.4	nt
CSc1ccccc1NC(=O)C1CCCO1 (configuration not stated)	-27.2	-6.1	1.9	-1.1	0.0	-22.9	-2.1	1.5
CC(C)S(=O)(=O)C1=NSC2=NC(=O)/C(=C\c3ccc(OC(=O)c4ccco4)cc3)C(=N)N21	-3.5	-7.2	-0.4	32.2	-4.2	-4.4	5.3	15.7
Cc1onc(-c2ccccc2)c1CNC(=O)C1COc2ccccc2O1 (configuration not stated)	-4.6	nt	0.9	-3.4	-1.5	-3.9	0.6	1.4
CCN(CC)c1ccc(/C=N/NC(=O)CC(C)C)cc1	2.6	2.6	0.2	?	10.1	-9.4	0.7	nt
CSc1nc(N2CCOCC2)nc2ccc(C)cc12	-3.7	2.6	0.2	5.1	5.6	2.7	9.5	-38.4
CCOC(=O)/C(C#N)=C/C=C1\C=Cc2ccccc2N1CC	8.8	8.2	-0.7	4.9	-30.8	30.1	-1.4	2.9
CCOC(=O)c1ccc(S(=O)(=O)N2CCN(CC(=O)NC(=O)NC3CCCCC3)CC2)cc1	0.0	-3.4	1.2	5.4	-1.9	-5.8	6.1	4.1
O=C(Nc1cccc(C(=O)NC2CC2)c1)c1ccc(Cl)c(S(=O)(=O)N2CCOCC2)c1	-1.1	-1.6	0.5	nt	5.5	nt	nt	1.4
Cc1ccc(C(C)C)c(OCC(=O)NNCC(=O)Nc2cccc(F)c2)c1	0.1	-0.5	0.6	nt	13.3	nt	nt	5.2
